Tgondii IFNg: blocks Toxoplasma gondii growth in the presence of IFN-gamma. Toxoplasma gondii growth in IFN-gamma-treated host cells; active compounds read low; reference of the scale not given here. activity change, negative = inhibition, %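 (about 20 µM by stock and volumes)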. hit rate 3.8% among 69,000. AID 1259416;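 active = below -70%; inconclusive = fit judged invalid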;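 also: host cells are HeLa cells infected with Toxoplasma gondii; parasite growth read as luciferase light; one replicate is shown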
Starred values were filed as active, the others as inactive; i = inactive; ? = inconclusive; & = joins results of further samples. Not all compounds are listed; count on the stated rates, not on these rows.

SMILES	Tgondii IFNg
CCCn1cc(C(=O)Nc2ccc(NC(=O)C(C)(C)C)c(C)c2)c(C)n1	149.2
CCC1Oc2ccc(C(=O)n3nc(C)cc3C)cc2N(CC(=O)c2ccc(C)cc2)C1=O (stereo not drawn)	9.0
COc1cccc(CN2CCN(C)C(C(=O)O)C2)c1F (stereo not drawn)	3.1
Cc1nc(-c2ccc(F)cc2)sc1CCNC(=O)COc1ccc(Cl)cc1	-46.6
CCN1C(=O)C2(CCN(S(C)(=O)=O)CC2)CC12CCN(C(=O)Nc1ccccc1)CC2	166.3
CCOCc1cnc2n1CCN(C(=O)Cc1cccs1)C2C (stereo not drawn)	39.2
CCc1[nH]c(=O)c(C(=O)N2CCCC2c2nc(C)c(CC)c(=O)[nH]2)cc1C (stereo not drawn)	62.2
Cc1ccc(-n2ncc3c(NCc4ccccc4)ncnc32)c(C)c1	-59.9
CCOC(=O)c1cc(-c2nc(-c3ccccc3)cs2)c(C)nc1C(F)(F)F	-36.1
CCN(CC)c1ncc2c(c1C(=O)O)CCN(Cc1cnn(C)c1)C2	-3.1
COc1ccccc1OCCN(C)C(=O)c1ccc(=O)n(C)c1	14.3
C=CCOC1C2CCC1N(c1ncc(F)cn1)C2 (stereo not drawn)	11.2
CNC(=O)CN1C(=O)CCC12CCCN(c1cnccn1)C2 (stereo not drawn)	-1.2
c1ccc(CCc2nc(C3CCOCC3)n(-c3ccccn3)n2)cc1	-2.2
N#Cc1cccc(-c2ccc3c(c2)[C@H]2[C@H](CCN2C(=O)CN2CCOCC2)[C@H](CO)N3)c1	107.5
O=c1cc(-c2cnccn2)nc2cc(-c3ccc(Cl)cc3Cl)[nH]n12	12.3
O=C(Cn1c(=O)cc(C(=O)N2CCc3ccccc3C2)c2ccccc21)Nc1ccc(F)c(Cl)c1	-71.9*
CCOC(=O)N1CCC2(CC1)OC(=O)C(C)=C2C(=O)NCc1cccc(OC)c1	50.8
COc1cc(C(=O)Nc2ccccc2-c2nc3ccccc3s2)cc(OC)c1OC	-89.6*
CN1C(CC(=O)c2ccccc2)CCCC1CC(O)c1ccccc1 (stereo not drawn)	7.7&5.0
Cn1ncc2c3ccccc3n(CC(=O)N3CCN(c4ccccn4)CC3)c2c1=O	135.9
CN(Cc1nc2ccccc2s1)C(=O)CN(C)C1CCS(=O)(=O)C1 (stereo not drawn)	-6.1
CC(C)[C@H](N)C(=O)OCCOCn1cnc2c(=O)[nH]c(N)nc21	2.5&13.1
Cc1nnc(SC(C)C(=O)Nc2ccc(S(=O)(=O)N3CCCCC3)cc2)s1 (stereo not drawn)	32.2
C[C@@H]1CN([C@H](C)CO)C(=O)c2cc(NC(=O)C3CC3)ccc2O[C@H]1CN(C)S(=O)(=O)c1ccccc1	-37.5

Single values from the list:
CCOC(=O)c1cc(-c2nc(-c3ccccc3)cs2)c(C)nc1C(F)(F)F | Tgondii IFNg = -36.1
N#Cc1cccc(-c2ccc3c(c2)[C@H]2[C@H](CCN2C(=O)CN2CCOCC2)[C@H](CO)N3)c1 | Tgondii IFNg = 107.5

The listing picks up; the 4 compounds before the break are reprinted first.
SMILES	Tgondii IFNg
CN(Cc1nc2ccccc2s1)C(=O)CN(C)C1CCS(=O)(=O)C1 (stereo not drawn)	-6.1
CC(C)[C@H](N)C(=O)OCCOCn1cnc2c(=O)[nH]c(N)nc21	2.5&13.1
Cc1nnc(SC(C)C(=O)Nc2ccc(S(=O)(=O)N3CCCCC3)cc2)s1 (stereo not drawn)	32.2
C[C@@H]1CN([C@H](C)CO)C(=O)c2cc(NC(=O)C3CC3)ccc2O[C@H]1CN(C)S(=O)(=O)c1ccccc1	-37.5
CCCN1Cc2ccccc2C2(CCN(CC(=O)N(C)C)CC2)C1	12.7
Cc1nccn1CC1(CNC2CSCCSC2)CC1	-3.4
O=C1CSc2nnc(-c3cccs3)n21	-24.2
CN1C(=O)CCC2C1CCN2C(=O)c1ccc2c(c1)OCO2 (stereo not drawn)	-4.2
COc1ccc(-c2noc(-c3c(O)c4ccccc4[nH]c3=O)n2)cc1F	85.5
O=C(O)c1cccc2c1C(=O)N(Cc1cccs1)C2	43.8
O=c1ccc2cc(S(=O)(=O)N3CCCC(CN4CCc5ccccc5C4)C3)ccc2[nH]1 (stereo not drawn)	154.7
O=C(C1CCC1)N1CCCCN2[C@H](CO)[C@@H](c3ccc(-c4ccncc4)cc3)[C@H]2C1	-23.1
C[C@@H]1CN([C@@H](C)CO)C(=O)CCCn2nncc2CO[C@H]1CN(C)S(=O)(=O)c1ccc(Oc2ccccc2)nc1	-15.7
Nc1cc(-c2ccc(Br)cc2)nc2cc(-c3ccccc3)nn12	-66.6
Nc1nc(Cl)nc2c1ncn2[C@@H]1O[C@H](CO)[C@@H](O)[C@@H]1F	-73.9*
CC(C)Oc1ccc(C(=O)N[C@H](CNC(=O)CN(C)C)Cc2ccc(-c3cn4cccc([C@H](C)O)c4n3)cc2)cc1Cl	-79.6*
Cc1ccc(C)c(OC(C)C(=O)NCc2csc(N)n2)c1 (stereo not drawn)	38.2
CN(C)C(=O)CN1CC[C@@H](OCC2CC2)[C@@H]1Cc1cnn(C)c1	-2.3
CO[C@@H]1CN(C)C(=O)c2cc(NC(=O)NC3CCCCC3)ccc2OC[C@@H](C)N(CC2CCOCC2)C[C@@H]1C	177.5
O=C(NC1CC(=O)N(CCCc2ccccc2)C1)c1cccc2nccnc12 (stereo not drawn)	0.0
CN1C(=O)c2cc(NC(=O)Cc3cccs3)ccc2OC[C@H]2O[C@@H](CC(=O)NCCc3ccncc3)CC[C@@H]21	5.0
Cc1ccc(N(C(=O)c2ccc(Cl)cc2)C2C=CS(=O)(=O)C2)cc1 (stereo not drawn)	-67.2
Cc1cccn2cc(C(=O)N3CCCCC3CCc3ccccn3)nc12 (stereo not drawn)	1.6
COCc1nnc(C(=O)N2CCC(N3CCCCC3)CC2)o1	-2.1
Cc1cccc(NC(=O)N2CCC3(CC2)Nc2cc(F)ccc2-n2cccc23)c1C	28.9
COc1ccc2c(c1)C(C)=CC(C)(C)N2S(=O)(=O)c1ccc(Cl)cc1	-93.1*
COc1ccc(C(=O)N(Cc2ccc(C)cc2)C2(C(=O)NCc3ccccc3)CCN(C(C)=O)CC2)cc1	7.4
COCCN1CCOCC12CCN(C(=O)Cc1ccsc1)CC2	-2.6
COc1ccccc1OCC(=O)n1nc(N)c2c(C(F)(F)F)cc(C)nc21	32.3

The list goes on.
SMILES	Tgondii IFNg
O=C(C1CCC1)N1C[C@H]2[C@@H](c3ccccc31)[C@H](CO)N2C(=O)Nc1cccc(F)c1	1.4
COc1cccc(C(=O)Nc2ccc3c(c2)OC[C@H](C)N(CCc2ccccc2)C[C@@H](C)[C@@H](OC)CN(C)C3=O)c1	i
CC1CCN(S(=O)(=O)c2ccc3c(c2)CCC(=O)N3CC(=O)NCCC2=CCCCC2)CC1	-49.0
COc1cc(C(=O)n2c(SCc3ccc(C)cc3)nc3ccccc32)cc(OC)c1OC	166.7
CCOc1ccccc1N(Cc1nc(-c2ccccc2)oc1C)S(=O)(=O)c1cccs1	-60.1
Cc1cc(N2CCOC(C(F)(F)F)C2)nc(-c2ccccc2O)n1 (stereo not drawn)	-46.3
CN(C)C(=O)c1ccc(-c2ccc(C3[C@H]4CNC[C@@H]3N4Cc3ccccn3)cc2)cc1 (stereo partly drawn)	-9.2
Cc1cccc(CN2CC3(CCN(C(=O)c4ccno4)CC3)CC2=O)c1	-32.8
Cc1n[nH]c(C)c1CCCN(C)c1nccc(N2CCCC(O)C2)n1 (stereo not drawn)	-6.5
CN1CC[C@@]2(C(=O)N3CCOCC3)CCN(S(C)(=O)=O)CC[C@H]12	8.5
COCCN1CCCC12CCN(Cc1cc(C)nn1C)CC2	-56.4
O=C(CN1CCNCC1)N1CC[C@@H](c2ccc3c(c2)OCO3)[C@H](O)C1	8.9
O=C(Cn1ncc2c(N3CCCCCC3)ncnc21)Nc1ccccc1	35.2
CCOC1COC2(CCN(C(=O)c3cscn3)CC2)C1 (stereo not drawn)	13.0
COc1cccc(C(=O)N2CCC3(CC2)NC(=O)c2cc(C)ccc2N3C)c1	11.4
Cc1ccc(C(=O)N2CC[C@@H]3OCCN(Cc4cccnc4)[C@@H]3C2)s1	-0.9
CC(C)Cc1ccc(C(C)c2nc(-c3cccs3)no2)cc1 (stereo not drawn)	?
Cc1nn(C)c(C)c1CCNS(=O)(=O)c1ccc2c(c1)CCC(=O)N2	59.2
CS(=O)(=O)N1CCS(=O)(=O)[C@H]2CCN(CC3CC3)CC[C@@H]21	-11.1
COc1ccc(N(Cc2nc(-c3ccc(OC(C)C)cc3)oc2C)S(=O)(=O)c2cccs2)cc1	-19.1
C[C@H]1CN([C@@H](C)CO)C(=O)c2c(c3ccccc3n2C)-c2ccccc2CO[C@@H]1CN(C)C(=O)[C@H](Cc1ccccc1)N(C)C	16.5
CNC(=O)C1(Cc2cccc(-c3cccs3)c2)CCN(C(=O)c2ccccc2OC)CC1	-27.4
CCCCOc1ccc2c(=O)c(-c3cc(C(=O)OC)oc3C)c(C(F)(F)F)oc2c1C	-108.0*
COc1ccc(CN2CC(C(=O)N3CCOCC3)C3(CCOCC3)C2)cc1 (stereo not drawn)	-6.6
CO[C@H]1CN(C)C(=O)c2cc(NC(=O)CC(F)(F)F)ccc2OC[C@H](C)N(CC2CC2)C[C@@H]1C	37.0

2 records picked at random from those above, as already listed:
SMILES	Tgondii IFNg
CO[C@H]1CN(C)C(=O)c2cc(NC(=O)CC(F)(F)F)ccc2OC[C@H](C)N(CC2CC2)C[C@@H]1C	37.0
Cc1n[nH]c(C)c1CCCN(C)c1nccc(N2CCCC(O)C2)n1 (stereo not drawn)	-6.5

(more compounds)
SMILES	Tgondii IFNg
Cc1ccccc1-c1noc(C(C)NC(=O)COc2ccc3nsnc3c2)n1 (stereo not drawn)	41.4
CCOCc1nnc(NC(=O)Cc2coc3cc(C)c(C)cc23)s1	-45.2
Cc1ccsc1CN(Cc1ccoc1)CC(C)C	0.1
COc1ccc(CC2(CO)CCN(C(=O)c3ccc4ncccc4c3)CC2)cc1	-16.7
Cn1c(C(=O)NCc2ccco2)cc2c1c1ccccc1n2CC1CC1	3.5
CCN(CC)Cc1c(C(=O)O)noc1C	-34.5
Cc1cc(Br)ccc1NC(=O)Cn1ncc2c(N3CCC(C)CC3)ncnc21	-48.1
CN1CC2(CCN(C(=O)c3ccc4sc5c(c4c3)CCNC5=O)C2)OC1=O (stereo not drawn)	55.0
O=C(Cn1ccnc1-c1ccccc1)Nc1cccc(N2CCCC2)c1	-40.6
Cn1ccnc1CN1CCCC2(COCCN(c3ncccc3F)C2)C1 (stereo not drawn)	-6.5
CC(C)C1CN(C(=O)c2n[nH]c3c2CCC3)CCCN1CC1CC1 (stereo not drawn)	7.8
CC(C)N1CCC(CNC(=O)CCO)C1 (stereo not drawn)	11.2
C[C@@H]1CN([C@H](C)CO)C(=O)c2cc(NC(=O)CCCCCC(=O)Nc3ccccc3N)ccc2O[C@@H](C)CCCCO[C@H]1CN(C)Cc1ccc(Cl)c(Cl)c1	339.3
O=C(O)c1ccc(CN2CCC(c3[nH]ncc3-c3ccccc3)CC2)cc1	-2.9
CC1=CC[C@@H]2CN(Cc3cccc(OCCO)c3)C[C@@H]2C1	-9.8
O=C(O)CSc1nc2ccc(Cl)cc2[nH]1	3.9
CC(C)(CO)c1cc2cc(NC(=O)C3(c4ccc5c(c4)OC(F)(F)O5)CC3)c(F)cc2n1C[C@@H](O)CO	1.6
COc1ccc2c(-c3ccc(Cl)cc3)c(C)oc2c1	369.8
CCN1CCN(C(=O)Cn2nc(C)c3sc(-c4ccccc4)nc3c2=O)CC1	-34.9
c1ccc(-n2nccc2CN2CCc3[nH]cnc3C2c2cccnc2)cc1 (stereo not drawn)	8.2
Cc1cccc(C(=O)N2CCc3c([nH]c4ccccc34)C2c2ccc(F)cc2)c1 (stereo not drawn)	-43.6
COCC(=O)N1CC2(CN(S(C)(=O)=O)C2)c2c(n(C)c3cc(OC)ccc23)[C@H]1CO	279.3
O=S(=O)(Nc1cccnc1)c1cc(Cl)sc1Cl	8.8
Cc1cc(C(=O)N(C)CC(=O)c2ccc(O)cc2)n[nH]1	3.4
CCNC(=O)c1cccc(-c2ccc(F)cc2OC)c1	22.8

More records
SMILES	Tgondii IFNg
COc1ccc(CCN(C)Cc2nc(-c3cccc(Cl)c3)no2)cc1OC	-7.9
COc1ccc(-c2nc(Cn3nnc(C(=O)Nc4cccc(C)c4C)c3C)c(C)o2)c(OC)c1	47.6
CCOc1ccc(S(=O)(=O)Nc2ccc3c(c2)CCC(=O)N3CC(C)C)cc1	-56.2
O=C(c1csc(-c2cccnc2)n1)N1C[C@@H]2[C@@H]3CC[C@@H](C3)[C@@H]2C1	-6.0
Cn1ccnc1SCCn1ccnc1-c1cccc2nonc12	-0.3
CCOC(=O)NC(=O)c1cn(CCc2ccncc2)c(=O)[nH]c1=O	-41.9
Cc1ccc(N2CC[C@H]3[C@@H]2CCN3C(=O)c2ccc(C)o2)nn1	2.5
Cc1cccc(S(=O)(=O)N2C[C@H](O)COC[C@H]3O[C@@H](CC(=O)Nc4ccccc4)CC[C@@H]32)c1	73.5
CN(C)c1nc2ccccc2cc1CN(Cc1ccncc1)C1CC(C)(C)NC(C)(C)C1	-12.1
CC(C)c1cc(C(F)(F)F)n2nc(C3CCN(S(=O)(=O)N4CCCC4)C3)cc2n1 (stereo not drawn)	-43.4
Cc1noc(C)c1NC(=O)N(C)C[C@@H]1OCc2cn(nn2)CCCC(=O)N([C@@H](C)CO)C[C@H]1C	311.0
CN1CCc2ccccc2Cc2[nH]c3ccccc3c2CC1	7.3
COc1ccc2c3c([nH]c2c1)[C@@H](CO)N(Cc1ccncc1)CC31CN(Cc2ccc(-c3ccccn3)cc2)C1	2.2

Filtered by structure: the compounds so far containing an aryl thioether with sulfur outside any ring.
SMILES	Tgondii IFNg
Cc1nnc(SC(C)C(=O)Nc2ccc(S(=O)(=O)N3CCCCC3)cc2)s1 (stereo not drawn)	32.2
COc1cc(C(=O)n2c(SCc3ccc(C)cc3)nc3ccccc32)cc(OC)c1OC	166.7
O=C(O)CSc1nc2ccc(Cl)cc2[nH]1	3.9
Cn1ccnc1SCCn1ccnc1-c1cccc2nonc12	-0.3

Compound activity: PubChem BioAssay, Broad Institute
